VACV Venus inh – inhibitors of vaccinia virus (Venus reporter) | Vaccinia virus Venus reporter expression, fluorescence | Potency, µM (titrated, usually from 36.5 µM), for inactives: at the top dose activity change, negative = inhibition, hits mostly inhibitors | hit rate 0.46% among 330,000 | AID 720580; active means well fitted inhibition curve with a large enough effect; inconclusive means small, poorly fitted or top-dose-only effect; inactive means no such curve, though single readings can be large or run the other way; tested in A549 cells; also: nearly all actives have a fitted effect of over 30% in size; inactives centre near -10
Vaccinia mCherry – inhibitors of vaccinia virus infection (mCherry reporter signal); Vaccinia virus mCherry reporter infection, fluorescence; about a quarter of the inactives have no number; hit rate 0.63% among 310,000; Potency, µM (top dose mostly 36.5 µM), for the others: top-dose activity change, negative = inhibition, hits mostly inhibitors; active = well fitted inhibition curve with a large enough effect; inconclusive = small, poorly fitted or top-dose-only effect; inactive = no such curve, though single readings can be large or run the other way; tested in A549 cells; also: nearly all actives have a fitted effect of over 35% in size; inactives centre near -10
* = called active by the depositor; i = inactive; ? = inconclusive; · = no result given; & = joins results of further samples; [ ] = another dose, or the depositor's remark. % is scaled to controls: 0 for no effect and ±100 for the full control effect; potency is read from the fitted curve at half-maximal effect.

mol,Vaccinia mCherry,VACV Venus inh
CCCn1c(N)c(C(=O)CN2CCc3ccccc3C2)c(=O)n(C)c1=O,i,-1%
COc1ccccc1CNC(=O)C(C)NS(=O)(=O)c1ccccc1 (configuration not stated),·,-9%
CSc1ncc(CN2CCCC(C(=O)c3sccc3C)C2)cn1 (configuration not stated),i,7%
O=C(CSc1nnc(CNC(=O)c2c(F)cccc2Cl)o1)Nc1ccccc1F,-5%,-3%
O=C(CCN1CCCCCC1)Nc1cccc(F)c1,·,-21%
O=C(O)c1ccc2c(c1)N(Cc1ccccc1F)C(=O)c1ccccc1S2=O (configuration not stated),i,-10%
CCN1C(=O)/C(=C2/C(=O)N3c4c(cc(OC(C)=O)cc42)C(C)=CC3(C)C)SC1=S,-6%,1%
Cc1cc(C)nc(NS(=O)(=O)c2ccc(N/C=C/C(=O)c3ccc(Cl)cc3)cc2)n1,i,0%
CCOC(=O)C1=C(C)NC(=O)NC1c1ccccc1 (configuration not stated),?,-3%
CCC(=O)N1CCC1(C)C(=O)Nc1nccs1 (configuration not stated),-6%,6%
CCN(CC)S(=O)(=O)c1cc(NC(=O)C(C)N2CC=C(c3ccccc3)CC2)ccc1C (configuration not stated),?,-29%
Cc1ccc(S(=O)(=O)CCC(=O)N(CCCN2CCOCC2)c2nc3ccccc3s2)cc1,14µM*,?
CCCc1cc(C(=O)Nc2ccc(C#N)cc2)no1,3%,-5%
CCN(CC)C(=O)N1CCc2ccccc2C1CN1C(=O)c2ccccc2C1=O (configuration not stated),-28%,-20%
O=C(C[n+]1ccccc1)N/N=C/c1cc(Br)ccc1F,-5%,-1%
COc1cc(OC)c(OC)cc1CNC(=O)c1cc(=O)c2ccccc2o1,5%,4%
CC(C)CC(C(=O)OCC(=O)Nc1ncc(Cl)cc1Cl)N1C(=O)c2ccccc2C1=O (configuration not stated),·,-14%
CC(C)C(c1nnnn1Cc1ccc(F)cc1)N1CCC(C(N)=O)CC1 (configuration not stated),i,-5%
N#CCCn1nc(-c2ccc([N+](=O)[O-])cc2)cc1Nc1ccccc1NC(=O)C(F)(F)F,?,-27%
COC(=O)N/N=C/c1ccc(-c2cc(Cl)ccc2Cl)o1,i,-17%
CCc1ccc(CNC(=O)c2ccc3nc(C(C)C)oc3c2)cc1,-5%[7.34 µM],-3%[7.34 µM]
Cn1c(SCc2cnc(-c3ccccc3)s2)nnc1C1COc2ccccc2O1 (configuration not stated),-22%,-18%
CCc1nc2ccc(C(=O)NCCC(C)C)cn2c1N(CCN(C)C)CC1CC1,23%,-9%
CC(C)NC(=O)CSc1ccccc1C(=O)NCc1ccc2c(c1)OCO2,·,-29%
Cc1ccccc1C(=O)n1nc(-c2ccco2)nc1NCc1ccc(Cl)cc1,-13%,-6%
Cc1ccc(-c2nc3cc(C)c(Br)c(C)n3c2Cc2ccccc2)cc1,-10%,-10%
C[C@@H]1CN([C@H](C)CO)S(=O)(=O)c2ccc(C#Cc3ccccc3F)cc2O[C@H]1CN(C)C(=O)c1ccc2c(c1)OCO2,?,?
CC(C)Oc1ccc(C2CCC(=O)NC2=O)cc1 (configuration not stated),-7%,8%
COc1ccc(N2CCN(CC(O)COc3ccc(C(C)(C)C)cc3)CC2)cc1 (configuration not stated),-23%,-6%
CSc1ccc2c(c1)N(CCC1CCCCN1C)c1ccccc1S2 (configuration not stated),-23%&-25%,?
CCCCC1CCC(C(=O)N2CCOCC2)CC1 (configuration not stated),i,-3%
Cc1[nH]c(=O)[nH]c(=O)c1S(=O)(=O)N(CC(C)C)CC(C)C,i,-7%
CSc1ncc(C(=O)NCc2ccc(F)cc2)c(-c2ccccc2)n1,-11%,-11%
O=C(c1cc(C(=O)N2CCN(c3ccc(F)cc3)CC2)cc([N+](=O)[O-])c1)N1CCN(c2ccc(F)cc2)CC1,?,?
CCOC(=O)c1c(NC(=O)C2C3C=CC(C3)C2C(=O)O)sc2c1CCC(C)C2 (configuration not stated),-15%,-30%
Cc1ccc(Cc2c(C(C)(C)C)nc3cc(C)c(Br)c(C)n23)cc1,13%,11%
CCOC(=O)c1nc(Nc2ccc(C(=O)OC)cc2)c2ccccc2n1,1%,-6%&-23%
c1ccc2c(c1)CNc1ccccc1-2,i,-6%
CC(C)C[C@@H](CSc1ccccc1)N1CCN(C)CCC1=O,-5%,-8%&3%
Cc1nc2nc[nH]n2c(=O)c1CCC(=O)Nc1ccc(F)cc1,-10%,-5%
COc1ccccc1CCNc1ncnc2sc(C(=O)N3CCCCC3)c(C)c12,-21%,-18%
CC(C)C(C)NC(=O)CSc1nc2scc(-c3ccco3)c2c(=O)n1-c1ccccc1 (configuration not stated),·,0%
CS(=O)(=O)N1CCc2cc(C(=O)N3CCN(c4ccccc4)CC3)ccc21,-27%&-17%,-21%&-10%
O=C1c2ccccc2NC(c2cccc(O)c2)N1Cc1ccco1 (configuration not stated),i,-8%
COCc1nc(-c2ccc(-c3ccc(C)cc3)nc2OC)no1,-18%,-13%
CCc1cc2c(C)cc(=O)oc2cc1OC(=O)C1CCCN1C(=O)OC(C)(C)C (configuration not stated),i,-13%
COCCCn1c(N)c(C(=O)OCCOC)c2nc3ccccc3nc21,-12%,-9%
COc1ccccc1C(=O)NC(=S)NC12CC3CC(CC(C3)C1)C2,-5%,-1%
COc1ccc(C(CCNCc2ccccc2)c2ccc(F)cc2)cc1 (configuration not stated),?,?
Cc1ccc(N(C(=O)c2ccco2)C2C=CS(=O)(=O)C2)cc1 (configuration not stated),i,-3%

Remaining list, next part.
mol,Vaccinia mCherry,VACV Venus inh
C#CCOCCOCCOCCNc1nc(N2CCN(C(=O)C(Cc3ccc(O)cc3)n3cc(C(N)C(C)CC)nn3)CC2)nc(N2CCN(C(=O)C(Cc3ccc(O)cc3)n3cc(C(N)C(C)CC)nn3)CC2)n1 (configuration not stated),i,-11%
CCOc1ccc(-c2c(C(=O)N/N=C/c3ccoc3)nnn2-c2nonc2N)cc1,i[7.34 µM],-3%[7.34 µM]
CN1CCN(c2ncnc3c2ncn3[C@H]2CN(Cc3ccc(Cl)cc3)C[C@@H](CO)O2)CC1,-12%,-6%
COc1ccc(NC(=O)C2CC(=O)N/C(=N/NC(=O)c3ccc(Cl)cc3)S2)cc1 (configuration not stated),i,-8%
CCOC(=O)C1=C(c2ccccc2)NC(=O)NC1c1ccc(N(C)C)cc1 (configuration not stated),-2%,-2%
COc1ccc(NC(=O)CSc2nnc(Cc3ccccc3)c(=O)n2N)c(OC)c1,-1%,-17%
COc1ccc(NC(=O)COc2ccc(C(=O)NC3CCCc4ccccc43)cc2OC)cc1 (configuration not stated),?,-9%
COc1ccc(CNC(=O)c2cc3c(s2)-c2c(C)cccc2OC3)cc1,?,?
O=C(Nc1nc2c(s1)COc1ccccc1-2)c1cccs1,-2%,-17%
O=C(OCC(=O)N1CCc2ccccc21)c1cc(S(=O)(=O)N2CCOCC2)ccc1F,-10%,-13%
CCN(CC(=O)Nc1ccccc1C(F)(F)F)C(=O)CCc1nc2ccccc2c(=O)[nH]1,i,-23%
COc1ccccc1CNC(=O)c1ccc2c(c1)N(Cc1ccc(C)cc1)CCS2,-12%,-3%
Cc1onc(-c2ccccc2Cl)c1C(=O)Nc1nn[nH]n1,-12%,-7%
Cc1cc(-c2csc(N)n2)c(C)n1-c1ccccc1,?,-17%
CCn1c(-c2cccc(OC)c2)nc2cc(NC(C)=O)cc(C(=O)N3CCC[C@H]3C(=O)OC)c21,-8%,0%
Cc1cccc(N2CCN(S(=O)(=O)c3ccc4c(c3)OCCO4)CC2)c1C,-29%,-11%
Cc1ccc(CNC(=O)C2CC2c2ccccc2)cc1 (configuration not stated),-3%,-11%
COC(=O)c1ccc2c(c1)NC(=O)C(N(CC(C)C)CC(C)C)S2 (configuration not stated),i,-9%
O=C(OCn1nnc2ccccc2c1=O)c1cccnc1Cl,-4%,-4%
Cc1ccccc1N=C1c2cc([N+](=O)[O-])ccc2-c2ncccc21,-3%,4%
COc1ccccc1-c1nn2c(=O)cc(CN3CCN(C(=O)/C=C/c4ccccc4)CC3)nc2s1,?,-28%
CCc1ccc(NC(=O)C(=O)NCC(c2cccnc2)N2CCN(C)CC2)cc1 (configuration not stated),-8%,-8%
FC(F)(F)c1cccc(Nc2nc(N3CCCC3)nc(N3CCCC3)n2)c1,8%,1%
CC(C)(C)CC(C)(C)c1ccc(OCC(=O)N/N=C/c2ccc(S(=O)(=O)O)o2)cc1,i,-5%
COc1cccc(C2c3c(oc4cc(C)c(C)cc4c3=O)C(=O)N2CCCN(C)C)c1 (configuration not stated),-7%,4%
CC(C)c1nc(SCC(=O)NC2CCCC2)c2ccccc2n1,37%[activator],-4%
CCCc1cc2c(=O)c(-c3ccc4c(c3)OCCO4)coc2cc1OC(=O)c1ccco1,i,-15%
COc1cccc(NC(=O)c2ccccc2-c2nc(-c3ccc(Cl)cc3)no2)c1,·,?
COC(=O)[C@@H]1C[C@@]1(C)[C@@H](NP(=O)(c1ccccc1)c1ccccc1)c1ccccc1,-1%,-6%
C=C(C)Cn1c(SCC(=O)N/N=C/c2ccccc2)nc2ccccc2c1=O,-1%,-16%
COc1ccc(S(=O)(=O)N2CCOCC2)cc1NC(=O)c1cccc(-n2cccc2)c1,i,-4%
CC(=O)Nc1cccc(C(=O)OCC(=O)NNC(=O)c2ccc([N+](=O)[O-])cc2)c1,-10%,-6%
CCCCN1C(=O)C(CC(=O)NCCc2ccccn2)CC(C(=O)N(C(C)C)C(C)C)=C1C (configuration not stated),4%,-9%
O=C(OCc1nnc(-c2ccc(Br)cc2)o1)c1ccco1,i,-3%
COc1ccc(C(C[N+](=O)[O-])c2c(C)cc3ccccn23)c(OC)c1 (configuration not stated),2%,5%
CC1=C(C(=O)Nc2ccccc2)C(c2ccc[nH]2)n2ncnc2N1 (configuration not stated),-6%&-10%,2%&8%
CCCN(CC(=O)Nc1ccc(F)c(F)c1F)C(=O)C1CC(=O)N(Cc2ccccc2)C1 (configuration not stated),i,-14%
COc1ccc(-c2nc3ccc(C)cn3c2NCc2ccc3c(c2)OCO3)cc1,-9%,-12%
CCOc1cc(CNCC2CCCN2CC)cc(Cl)c1OC (configuration not stated),i,1%
O=[N+]([O-])c1cccc(N=NNc2cccc([N+](=O)[O-])c2)c1,-17%,-22%
Cc1c(C(=O)c2ccc(Cl)c(Cl)c2)cnc2cc3c(cc12)OCO3,-16%,?
Cc1ccc(N2C(=O)CC(Cc3ccc(Cl)cc3)C2=O)cc1 (configuration not stated),-18%,-13%
C[N+](C)(C)CCOP(=O)([O-])OC[C@H](O)CO,-6%,-19%
Cc1cccnc1NC(=O)Nc1ccc(F)cc1,i,-12%
CCOC(=O)C1CCN(C(=O)CN2C(=O)c3cccnc3Oc3ccc(C)cc32)CC1,-10%,0%
CCCC(=O)Nc1sc(C(=O)Nc2cccc(N)c2)c(C)c1C(=O)OC,-2%,-19%
CC[n+]1c(/C=C(/C)SC)sc2ccccc21,-8%,-6%
COc1cc(/C=C/C(=O)O)cc(S(=O)(=O)Nc2ccccc2SC)c1OC,-12%,-6%
COc1ccc(-c2noc(CN3CCN(c4ccccc4F)CC3)n2)cc1OC,·,-20%
COc1ccc(-c2nc(N)nc(C)c2Oc2ccccc2Br)c(O)c1,·,?

(next part)
mol,Vaccinia mCherry,VACV Venus inh
COc1nc2ccccc2nc1OC,-12%,-8%
COc1ccc(OCC(=O)N2CCN(C(=O)c3ccc(F)cc3)CC2)cc1,i,-15%
CC1CCCC(C)N1C(=O)COC(=O)c1ccco1 (configuration not stated),-17%,-5%
CN(C)CCCNC(=O)C[C@H]1C[C@H](C(=O)N2CCCCC2)[C@@]2(C)c3[nH]c4cc(CCC(=O)N(C)C)ccc4c3CCN2C1=O,-17%,5%
CSc1ccc(Cl)c(C(=O)N2CCN(CC(=O)N3CCCC3)CC2)c1,i,-7%
Cc1cc(=O)n2[nH]c(-c3ccco3)nc2n1,0%,-13%

Entries of single compounds, looked up by structure. Order of values: Vaccinia mCherry	VACV Venus inh
CN(C)CCCNC(=O)C[C@H]1C[C@H](C(=O)N2CCCCC2)[C@@]2(C)c3[nH]c4cc(CCC(=O)N(C)C)ccc4c3CCN2C1=O is entered as -17%	5%
Cc1cc(=O)n2[nH]c(-c3ccco3)nc2n1 is entered as 0%	-13%
COc1nc2ccccc2nc1OC is entered as -12%	-8%
CSc1ccc(Cl)c(C(=O)N2CCN(CC(=O)N3CCCC3)CC2)c1 is entered as i	-7%
CC1CCCC(C)N1C(=O)COC(=O)c1ccco1 (configuration not stated) is entered as -17%	-5%

Screening data: PubChem BioAssay, National Center for Advancing Translational Sciences (NCATS)

Rows were taken by chance; about 0.87% have a hit in one of these screens.
